# Screening data (PubChem BioAssay)
# Anthrax LT inh – blocks cellular internalization of anthrax lethal toxin | Cells, anthrax lethal toxin internalization, FRET ratio (460/530) | Potency, µM (titrated, usually from 40 µM), inactives show at the highest dose activity change, negative = inhibition, most hits filed as inhibitors | hit rate 0.67% among 70,000 | AID 912; active = well fitted falling ratio curve with the 530 nm signal flat; inconclusive = other ratio curves, or a change in one channel alone; inactive = flat curves in the ratio and both channels; the % refers to the ratio; note: % is set by controls: 0 for no effect and ±100 for the full control effect; nearly all actives have a fitted effect of over 50% in size; tested in ME-180 cells; beta-lactamase reporter
# SmPrx2 inh – blocks S. mansoni peroxiredoxin 2 enzymatic activity | S. mansoni Prx2 activity coupled to TGR/GSH (TGR is thioredoxin glutathione reductase), NADPH fluorescence loss, qHTS; some inactives read as strong as hits | Potency, µM | hit rate 0.07% among 65,000; active means full or partial inhibition curve with a strong effect at the top dose; inconclusive means weaker partial or single-point curve; inactive means no accepted curve; note: series up to 57 µM; many of its hits are not listed in these tables
#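 Enzyme mix: 100 uM NADPH, 25 nM TGR, 700 uM GSH, 50 nM Prx2 in 100 mM phosphate pH 7.4, 10 mM EDTA, 0.01% Tween-20. 15 min RT with compound; NADPH/GSH added, H2O2 starts reaction; NADPH fluorescence read 8 min.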
# Numbers without * were called inactive; ? = inconclusive; . = no result given; ! = a repeat was not active; [ ] = remark or other dose. Potency is the fitted concentration of half-maximal effect. Some of the compounds tested; count on the stated rates, not on these rows.
# Value order: SmPrx2 inh	Anthrax LT inh
CC(NC(=O)c1ccco1)C(c1cccs1)N1CCN(c2ccccc2F)CC1 (centres undefined)
 : >57	-2%
COc1ccc(CN2CCNC(=O)C2CC(=O)O)cc1OC (centres undefined)
 : >57	0%
CCOC(=O)Cn1nnnc1C(C(C)C)N(Cc1cc2c(C)cc(C)cc2[nH]c1=O)C1CCCC1 (centres undefined)
 : >57	-16%
C=CCn1cc(C(=O)OC)c(=O)c2cc(S(=O)(=O)N3CCC(C)CC3)ccc21
 : >57	2%
Cc1noc(C)c1CSCC(=O)OCC(=O)NC1CCCCC1
 : >57	-14%
Oc1ccc(C=Nc2ccc(N3CCOCC3)cc2)c(O)c1
 : .	-12%
CC(C)(C)C1CCc2c(sc3c2C(=O)NC(c2ccco2)N3)C1 (centres undefined)
 : >57	?
Cc1oc(C(=O)O)cc1CSCc1cc(C(=O)O)c(C)o1
 : .	3%
CN(C)c1nc(N2CCOCC2)nc(N(c2ccccc2)c2ccccc2)n1
 : >57	-4%
COCCn1c(SCC(=O)NCc2ccco2)nc2cccnc21
 : >57	0%
CC(C)(C)NS(=O)(=O)c1ccc(CCC(=O)O)cc1
 : >57	?
Cc1cccc(NC(=O)c2cc3ccccc3o2)c1
 : >57	?
Cc1noc(C)c1-c1cc(N2CCNCC2)ncn1
 : >57	-8%
CCCn1nnnc1SCC(=O)Nc1ccc(F)cc1
 : >57	-15%
Cc1ccc(C)c(Cn2c(=O)n(CCC(=O)NCc3ccco3)c(=O)c3ccccc32)c1
 : >57	-4%

# Entries of single compounds, quoted from the list:
# Results for COCCn1c(SCC(=O)NCc2ccco2)nc2cccnc21 = SmPrx2 inh = >57; Anthrax LT inh = 0%
# Results for COc1ccc(CN2CCNC(=O)C2CC(=O)O)cc1OC (centres undefined) = SmPrx2 inh = >57; Anthrax LT inh = 0%
# Results for Cc1noc(C)c1-c1cc(N2CCNCC2)ncn1 = SmPrx2 inh = >57; Anthrax LT inh = -8%

# The listing continues:
# Value order: SmPrx2 inh	Anthrax LT inh
O=C(c1ccc(Cl)c(Cl)c1)N1CCOCC1
 : >57	0%
Cc1ccc(-n2nc(-c3cccnc3)cc2C(=O)N2CCOCC2)c(C)c1
 : >57	2%
COc1ccc(C2CC(c3ccccc3)Nc3ncnn32)cc1 (centres undefined)
 : >57	-14%
CCOC(=O)C1CCN(S(=O)(=O)c2ccc(-c3nc4ccccc4s3)s2)CC1
 : >57	-6%
Cc1ccc(-c2nc(-c3cccnc3)no2)c(C)c1
 : >57	-14%
O=C(O)Cc1cc(Cl)ccc1O
 : >57	-7%[8 µM]
COc1ccc(Cl)c(NC(=O)Cn2nnc(-c3ccccc3N)n2)c1
 : >57	?
CCN1CCN(C(=O)c2cn(CCOC)c(=O)c3c2c2ccccc2n3C)CC1
 : >57	?
C=C1CC[C@H](O)C/C1=C/C=C1\CCC[C@]2(C)[C@H]1CC[C@H]2[C@@H](C)CCCC(C)C
 : >57	-11%[3.58 µM]
COc1cc(OC)c(NC(=O)c2ccco2)cc1Cl
 : >57	-6%
Nc1cc(C(=O)O)ccc1Nc1ccc(F)c(F)c1
 : >57	0%
CCCCCOc1ccc(C(=O)N(Cc2ccco2)C2CCS(=O)(=O)C2)cc1 (centres undefined)
 : >57	?
O=C(c1cccc(COc2ccc(Cl)cc2Cl)c1)N1CCN(c2ccccn2)CC1
 : >57	?
CCOC(=O)c1ccc(-n2c(C)nc3c(cnn3-c3ccccc3C)c2=O)cc1
 : >57	-8%
CCCCCS(=O)(=O)CCCCCCCCCCn1c(-c2ccc(O)cc2)c(C)c2cc(O)ccc21
 : .	5µM*

# (next part)
# Value order: SmPrx2 inh	Anthrax LT inh
CCOc1ccc(-c2nc(C#N)c(N3CCN(C)CC3)o2)cc1
 : >57	4%
CCOc1ccc(-n2c(CC)nc3ccccc3c2=O)cc1
 : >57	-17%
O=C(NCC(=O)N(Cc1cccs1)C(C(=O)NC1CCCC1)c1ccncc1)c1ccco1 (centres undefined)
 : >57	-5%
COc1ccc(-c2cc(C(=O)NCc3ccccc3)no2)cc1OC
 : ?	-1%
COc1ccc(CNC(=O)CSc2ncn[nH]2)cc1
 : >57	-6%
Cc1cc(C(=O)NCc2ccccc2F)cs1
 : >57	4%
CCOc1ccccc1NC(=O)c1ccccc1-c1nc(-c2ccccc2)no1
 : >57	.
CC1Cc2ccccc2N1C(=O)c1ccc2c(c1)nnn2C (centres undefined)
 : >57	-17%
Cc1nnc(SCC(=O)N2CCN(S(=O)(=O)c3ccc(Cl)cc3)CC2)[nH]c1=O
 : >57	-5%
Cc1cc(C)nc(SCc2nnc(SCC(=O)Nc3cc(C(F)(F)F)ccc3Cl)o2)n1
 : >57	-15%
CN(C)c1[nH]c(=O)c(C#N)c2c1CCN2Cc1ccccc1
 : >57	-24%
CN(c1cccc(NC(=O)Cc2ccccc2)c1)S(C)(=O)=O
 : >57	1%
O=C1c2ccccc2NC2CCCCC12 (centres undefined)
 : >57	5%
O=C(Cn1c(-c2ccccc2)noc1=O)Nc1ccc(N2CCCCCC2)cc1
 : >57	?
COc1ccc2cc(CCNC(=O)c3ccc(Br)o3)c(=O)[nH]c2c1
 : >57	-8%

# Part of the list above, with tabs:
Compound	SmPrx2 inh	Anthrax LT inh
CN(c1cccc(NC(=O)Cc2ccccc2)c1)S(C)(=O)=O	>57	1%
O=C1c2ccccc2NC2CCCCC12 (centres undefined)	>57	5%
O=C(Cn1c(-c2ccccc2)noc1=O)Nc1ccc(N2CCCCCC2)cc1	>57	?

# (list continues)
# Value order: SmPrx2 inh	Anthrax LT inh
Cc1cc(NC(=O)c2cccc(S(=O)(=O)N3CCOCC3)c2)c2ccccc2n1
 : >57	-15%
Cc1cc(C)n(CC(=O)n2c3ccccc3c3ccccc32)n1
 : .	-12%
CCCCNC(=O)c1ccc(CS(=O)(=O)c2ccc(OC)cc2)o1
 : >57	-6%
COC(=O)c1cc(=O)n(C2CC2)c(=NC2CC2)s1
 : >57	?
CCCCSc1nnc([C@@H]2CCCN2C(=O)OC(C)(C)C)o1
 : >57	12%
O=C(CCc1nc2ccccc2[nH]1)Nc1ccccc1
 : >57	13%
COC(=O)[C@@]1(Cc2ccc(OC)cc2)[C@H]2c3cc(C(=O)N4CCCC4)n(Cc4ccc(OC(F)(F)F)cc4)c3C[C@H]2CN1C(=O)c1ccccc1
 : >57	?
COC(=O)c1ccc(OC(=O)c2ccco2)cc1
 : >57	-10%
CCn1nnc(NC(=O)c2cc3ccccc3o2)n1
 : >57	11%
COc1cc(C2NC(=O)NC(C)=C2C(=O)OC(C)(C)C)ccc1OCC(=O)O (centres undefined)
 : >57	-1%
COc1ccccc1OCCn1c(C(C)O)nc2ccccc21 (centres undefined)
 : >57	?
Clc1ccc(CSc2nnc(-c3ccncc3)o2)cc1
 : >57	.
CCOc1ccccc1-n1c(SCC(=O)NC(C)CC)nnc1-c1ccoc1C (centres undefined)
 : >57	-7%
COC(=O)N1CCN(C(=O)Cc2ccc(Cl)c(Cl)c2)[C@H](CN2CCCC2)C1
 : 14*!	?
N#CC1C(=O)NC(N2CCN(c3ccccc3)CC2)=NC12CCCCC2 (centres undefined)
 : >57	.

# Further records.
# Value order: SmPrx2 inh	Anthrax LT inh
COc1ccc(-c2nnc(SCC(=O)Nc3cccc(Cl)c3)o2)cc1
 : >57	1%
O=C(Nc1ccc(NC(=O)C2CC2)cn1)c1ccccc1Cl
 : >57	3%
COc1cccc(NC(=O)Cn2nnc(-c3ccccc3N)n2)c1
 : >57	?
C[C@@H]1C(=O)O[C@@H]2C[C@]34[C@H]5C[C@@H](C(C)(C)C)[C@@]36[C@@H](OC(=O)[C@@H]6O)O[C@@]4(C(=O)O5)[C@@]12O
 : >57	0%[3.58 µM]
CCCS(=O)(=O)c1nc(S(=O)(=O)c2ccc(C)cc2)c(NCCCN2CCOCC2)s1
 : .	16%
COc1ccc(-c2nc(CS(=O)CC(=O)N3CCCC3)c(C)o2)cc1 (centres undefined)
 : >57	15%
O=C(NCc1ccccc1)c1ccc(OC2CSC2)cc1
 : >57	3%
C[C@@H]1O[C@H](O[C@@H]2[C@@H](Oc3cc(O)c4c(c3)O[C@H](c3ccc(O)cc3)CC4=O)O[C@@H](CO)[C@@H](O)[C@H]2O)[C@@H](O)[C@H](O)[C@@H]1O
 : >57	-1%[3.58 µM]
CCc1cc2c(=O)c(-c3ccc4c(c3)OCCO4)coc2cc1OC(=O)c1ccco1
 : >57	-11%
CCOC(=O)CSC1=Nc2ccccc2C2=NC(CC(=O)NCc3ccccc3)C(=O)N12 (centres undefined)
 : >57	0%
CC(C)(C)n1nc(C2CC2)cc1NC(=O)Nc1ccc(Cl)cc1
 : >57	-13%[8 µM]
Cc1nc2nc(-c3ccccc3)nn2c(C)c1Cl
 : >57	.
Cc1cc(S(=O)(=O)NCC(C)C)ccc1OCC(=O)N1CCOCC1
 : >57	-4%
Cc1csc(SCCn2c(N3CCCC3)nc3c2c(=O)[nH]c(=O)n3C)n1
 : >57	-14%
Cc1cc(Cl)nc(NC(=O)CSc2ccc(Cl)cc2)n1
 : >57	-1%[8 µM]

# Additional records follow:
# Value order: SmPrx2 inh	Anthrax LT inh
COc1ccc(NC(=O)CCc2nc(-c3ccccc3F)no2)cc1
 : >57	8%
Cc1ccc(Nc2nc(CSc3nnnn3C)cs2)cc1
 : >57	-17%
O=C(NCc1cccs1)c1cc2c(s1)-c1ccccc1OC2
 : >57	?
C=CCSc1nnc2nc3c(nn12)c1cc(C)ccc1n3CC=C
 : >57	21%
Cc1cc(C)cc(NS(=O)(=O)c2ccc3[nH]cc(C(=O)NCc4ccco4)c(=O)c3c2)c1
 : >57	?
COc1cccc(NC(=O)Cn2c(-c3cncs3)nc3ccccc32)c1
 : >57	-29%
Cc1ccc(OCc2nc(C#N)c(N3CCCC3)o2)cc1
 : >57	?
Cc1cc(OCC(=O)Nc2c(C)n(C)n(-c3ccccc3)c2=O)c2c3c(c(=O)oc2c1)CCC3
 : >57	?
CN(CC(=O)Nc1nccs1)S(=O)(=O)c1ccc(F)cc1
 : >57	14%
COc1ccc(CCn2c(C)cc(C(=O)CSc3nnnn3C)c2C)cc1
 : >57	-3%
Cc1nnc(SCc2cc(=O)n3[nH]cnc3n2)s1
 : >57	?
COc1ccc(CC(=O)Nc2ccc(N3CCN(c4ccc(OC)cc4)CC3)c(C#N)c2)cc1
 : >57	?
Cc1ccc(-n2c(Cc3cccn3C)nnc2SCC(N)=O)cc1
 : >57	-5%
CCS(=O)(=O)Nc1ccc(C(=O)CC2(O)C(=O)Nc3ccc(Br)cc32)cc1 (centres undefined)
 : >57	-8%
CCOC(=O)c1cccnc1SCC(=O)N(C)c1ccccc1
 : >57	1%

# Following part.
# Value order: SmPrx2 inh	Anthrax LT inh
CC(=O)N1CCc2cc(S(=O)(=O)N3CCOCC3)ccc21
 : >57	13%
COc1ccc(C(=O)N2CCC3(CCCN(C(=O)Nc4cccc(C#N)c4)C3)CC2)cc1
 : >57	-12%
O=C(/C=N/O)Nc1ccccc1C(=O)O
 : .	6%
CC(C)Oc1ccc(C(=O)N(CN2CCCC2=O)c2ccc(F)cc2)cc1
 : >57	9%
COC(=O)c1[nH]c2cc(C)ccc2c1NC(=O)CN1CCc2cc(OC)c(OC)cc2C1
 : >57	.
CCCCC1CCC(C(=O)Nc2c(C)n(C)n(-c3ccccc3)c2=O)CC1 (centres undefined)
 : >57	7%
O=C(c1cnsn1)N1CCN(c2ccccc2)CC1
 : >57	1%
Cc1ccc(C2C(C#N)=C(N)SC(N)=C2C#N)cc1
 : >57	-3%
O=C(NC1=NCCS1)C1CC2CCC1C2 (centres undefined)
 : >57	-7%
O=C(c1ccncc1)N1CCC2(CC1)CN(c1cccc(-c3ccccc3)c1)C2
 : >11	-16%
CCOc1ncccc1C(=O)OCC(=O)c1ccc[nH]1
 : >57	-3%
CCC(C)N(C(=O)COC(=O)c1[nH]c(C)c(C(C)=O)c1C)C1CCS(=O)(=O)C1 (centres undefined)
 : >57	-9%
CC(=O)N1c2c(cc(Br)cc2S(=O)(=O)N2CCOCC2)CC1C (centres undefined)
 : >57	-6%
CSC1=NCCN1C(=O)Cc1ccc(F)cc1
 : >57	10%
Nc1c(C(=O)NC2CCCC2)c2nc3ccccc3nc2n1N
 : >57	?

# Further records
# Value order: SmPrx2 inh	Anthrax LT inh
c1ccc(CCN2CCC(N3CCN(c4ccccc4)CC3)CC2)cc1
 : .	-19%
O=c1c(O)c(-c2ccc3c(c2)OCO3)oc2ccccc12
 : >57	-5%
CN1CCN(CCNC(=O)Nc2ccccc2C(F)(F)F)CC1
 : >57	3%
CCCC[C@@H]1C[C@H]1C(NC(=O)c1cccs1)c1ccc(C(F)(F)F)cc1 (some centres undefined)
 : >57	?
Cc1cc(C)c2c(N)c(S(=O)(=O)Cc3ccccc3)sc2n1
 : >57	-9%
Cn1nc(-c2ccccc2)c2nc3ccccc3nc21
 : >57	-3%
CN(C)S(=O)(=O)c1cccc(-c2nnc(SCc3cc(Cl)cc4c3OCOC4)n2N)c1
 : >57	-9%
CCOC(=O)CN1C(=O)C2(OCCCO2)c2ccccc21
 : >57	7%
CCCN(CCC)CCCNC(=O)CS(=O)Cc1nc(-c2ccc(OC)c(OC)c2)oc1C (centres undefined)
 : >57	-5%
N=c1c(C(=O)NCc2ccco2)cc2c(=O)n3ccccc3nc2n1Cc1ccc(Cl)cc1
 : >57	?
